Bioassay records as filed in PubChem.
HSV replic up – increases HSV replication in cells. 220,000 tested, 0.005% active. HSV replication augmentation in cells, fold increase. maximum fold increase. AID 1956;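 active means peak rise of 1.5-fold or more in the series; inconclusive means self-fluorescent or not available for retest; tested in PC3 cells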;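 further: first round at 10 µM; read as green reporter fluorescence; hits show the peak of a series up to 25 µM; 1 = signal of infected wells without compound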
PKD1 kinase inh – blocks activity of human protein kinase D1. Q15139. PKD1 kinase fluorescence polarization assay. inhibition, %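 (about 10 µM by stock and volumes)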. 200,000 tested, 0.056% active. AID 797;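 active means inhibition of 50% or more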;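 further: controls were vehicle for no effect and a reference inhibitor for full effect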
GALR2 ag – activates the human galanin receptor 2. GALR2-expressing cells, agonist activation read-out. activation, %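 (tested at 5 µM)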. 140,000 tested, 0.48% active. AID 803;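 active means above mean plus 3 SD of all compounds, about 5% in these data, not always enough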;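 further: 0% = vehicle buffer wells and 100% = reference agonist at full effect; tested in CHO reporter cells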
Target sequence (O43603 whole entry, looked up): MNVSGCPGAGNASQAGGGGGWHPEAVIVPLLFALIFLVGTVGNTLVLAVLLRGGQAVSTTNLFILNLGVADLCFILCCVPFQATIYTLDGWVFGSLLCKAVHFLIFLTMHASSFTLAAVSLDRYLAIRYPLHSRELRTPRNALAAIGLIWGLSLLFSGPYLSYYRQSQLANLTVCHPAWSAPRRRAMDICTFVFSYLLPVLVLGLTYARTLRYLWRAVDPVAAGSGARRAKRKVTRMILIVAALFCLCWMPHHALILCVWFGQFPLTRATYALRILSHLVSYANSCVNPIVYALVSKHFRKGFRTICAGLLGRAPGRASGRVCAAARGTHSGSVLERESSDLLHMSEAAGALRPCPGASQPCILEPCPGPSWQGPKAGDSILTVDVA
RGS16-Gao HTS – modulates binding between human RGS16 and Galphao. binding response (% of control), % at 10 µM. bead-based flow cytometry RGS16-Galphao binding, fluorescence; actives lie on both sides. AID 1441. 220,000 tested, 0.38% active. O15492+P09471;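 active means below 25% or above 175%, edge rows of some plates excepted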;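 further: Galphao activated by GDP with aluminum fluoride before binding; 100% = wells without compound and 0% = beads without RGS; some results beyond the cut were filed as inactive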
Target sequence (O15492 whole entry, looked up): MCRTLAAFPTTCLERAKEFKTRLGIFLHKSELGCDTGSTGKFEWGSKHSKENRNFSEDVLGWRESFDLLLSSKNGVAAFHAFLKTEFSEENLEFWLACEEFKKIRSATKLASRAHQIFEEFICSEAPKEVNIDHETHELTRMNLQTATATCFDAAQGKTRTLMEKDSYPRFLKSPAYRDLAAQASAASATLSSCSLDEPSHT
Target sequence (P09471 whole entry, looked up): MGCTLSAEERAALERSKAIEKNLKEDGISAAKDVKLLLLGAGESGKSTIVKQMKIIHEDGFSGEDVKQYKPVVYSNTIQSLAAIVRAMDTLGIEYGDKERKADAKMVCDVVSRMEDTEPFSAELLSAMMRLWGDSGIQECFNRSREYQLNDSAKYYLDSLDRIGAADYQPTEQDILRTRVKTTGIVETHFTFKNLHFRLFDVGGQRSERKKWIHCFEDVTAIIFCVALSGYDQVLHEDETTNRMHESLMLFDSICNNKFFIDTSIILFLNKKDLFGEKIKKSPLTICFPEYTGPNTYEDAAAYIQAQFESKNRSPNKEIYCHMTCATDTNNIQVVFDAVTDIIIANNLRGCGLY
Insulin prom inh – TRM-6 insulin promoter activity inhibition; inhibition, % at 2 µM; 130,000 tested, 0.9% active; TRM-6 cells (human fetal islet line), insulin promoter-eGFP reporter, imaging; reporter expression induced with tamoxifen; AID 1273;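 active means inhibition above the mean plus 3 SD, with well images judged a real hit on visual review, cut at about 60% in these data, passing the limit was not always enough; inconclusive means inhibition over the cutoff but images rejected on review; inactive means inhibition not above the cutoff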
Insulin prom inh cell count – recorded beside Insulin prom inh, whose call it bears; normalized cell count, %; measured here: cell count, toxicity; reference of the scale not given here;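 cells exposed to compound for 48 h; stained nuclei by imaging scaled within each plate; lower means fewer cells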
HSV replic up primary fold – also measured in HSV replic up; calls as there; fold increase; compound at 10 µM; measured here: primary screen fold increase 10 uM; tested in PC3 cells;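 GFP signal in the first replicate; 1 = infected wells without compound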
The depositor's hits bear a star; i = inactive; ? = inconclusive; . = not tested or not shown.

mol	HSV replic up	HSV replic up primary fold	PKD1 kinase inh	GALR2 ag	RGS16-Gao HTS	Insulin prom inh	Insulin prom inh cell count
CCc1nc(NCc2ccc3c(c2)OCO3)c2oc3ccccc3c2n1	i	0.82	-7	-0.8	103	30	150
CC(C)NC(=O)c1cc2c(-c3ccc(Cl)cc3)nn(C)c2s1	i	0.93	-15	0.5	73	.	.
CCn1c(SCC(=O)NNC(=O)c2ccccc2)nnc1-c1ccncc1	i	0.96	-10	-2.2	103	-32	109
Cc1cc(C)nc(/N=C(\NC(=O)C(C)(C)C)Nc2ccccc2)n1	i	0.98	.	.	98	.	.
CCN(CC)S(=O)(=O)c1ccc(C(=O)OCn2nnc3ccccc3c2=O)cc1	i	1.1	-2	-1.0	98	11	103
O=C(NCC1CCCO1)C(c1cccs1)N(Cc1cccs1)C(=O)Cn1nnc(-c2cccs2)n1 (configuration not stated)	i	1	-7	-1.4	99	-100	120
Cn1nc(OCC(=O)O)cc1C(F)(F)F	i	1.2	.	.	105	.	.
O=C(NCc1ccccn1)C1CCN(S(=O)(=O)N2CCCC2)CC1	i	0.93	-10	-1.2	100	27	105
Cn1c(=O)cc(N)n(Cc2ccccc2)c1=O	i	0.82	-10	-0.4	102	-23	108
COc1ccc(N2CCN(C(=O)CSc3nc4[nH]ncc4c(=O)n3-c3cccc4ccccc34)CC2)cc1	i	0.69	3	.	111	33	16
CCc1cc(-c2onc(C)c2-c2cscn2)c(O)cc1OC	i	0.79	-1	.	96	.	.
Cc1nc(N2CCOCC2)c2c(C)c(C(=O)Nc3ccc(F)cc3F)sc2n1	i	0.96	-6	.	96	21	120
O=C(c1ccccc1-c1nc(-c2ccccc2)no1)N1CCOCC1	i	0.9	-5	-4.4	77	-53	110
CCOC(=O)Nc1cc(OC)c(OC)cc1Cc1nccc2cc(OC)c(OC)cc12	i	0.64	-4	-4.0	100	-10	110
CC(C)(C(=O)c1ccccc1)/[N+]([O-])=C/c1ccccc1	i	1	-4	-1.8	.	10	109
CCC(O)(CCN1CCCCC1)c1ccccc1 (configuration not stated)	i	1	-10	-1.5	107	-35	52
CCOc1ccc(C(C)=O)cc1CN1C(=O)NC(C)(C2CC2)C1=O (configuration not stated)	i	0.91	-3	.	100	.	.
CN1CCN(CCCNC(=O)c2ccc(Cn3c(=S)[nH]c4ccc(Br)cc4c3=O)cc2)CC1	i	0.99	5	.	107	-36	149
COC(=O)c1ccc(C(c2c(N)n(Cc3ccccc3)c(=O)n(C)c2=O)N2CCOCC2)cc1 (configuration not stated)	i	0.8	-4	-3.2	107	.	.
CCC(Sc1ccc(Cl)cc1)C(=O)Nc1nnc(-c2cccc([N+](=O)[O-])c2)s1 (configuration not stated)	i	0.99	-12	0.0	90	7	115
CNC(=O)CSc1nnc(-c2cc3c(C)nn(-c4ccccc4)c3s2)n1C	.	.	-2	-0.6	.	-29	151
Cc1cccc(-c2n[nH]c(S(C)(=O)=O)c2C#N)c1	i	1.1	.	.	94	.	.
CC(C)(C)NC(=O)COC(=O)Cc1ccc(Cl)cc1	i	1	-2	-0.4	107	-7	63
O=C(Nc1ccccc1)c1cccc(S(=O)(=O)Oc2ccc([N+](=O)[O-])cc2)c1	i	1.1	0	-0.2	122	-16	77
CNC(=O)c1ccsc1NC(=O)c1ccccc1	i	0.96	.	.	103	.	.
COc1cc(NC(=O)c2ccc(COCC(F)(F)F)cc2)cc(OC)c1OC	i	0.97	1	0.5	98	.	.
C=CC1=C(C(=O)O)N2C(=O)C(NC(=O)Cc3ccccc3)C2SC1 (configuration not stated)	i	1.4	3	-0.8	95	-31	95
CCCc1n(CC)c2ccccc2[n+]1CC(O)COC1CCCCC1 (configuration not stated)	i	0.96	-1	.	95	-29	129
COc1ccccc1NC(=O)c1sc2nc(Cc3ccccc3)cc(C(F)(F)F)c2c1N	i	1.1	-6	-1.9	102	41	62
Cc1ccc(C)c(NC(=O)c2c(Cl)nc3ccccn23)c1	i	0.93	-2	.	105	.	.

mol	HSV replic up	HSV replic up primary fold	PKD1 kinase inh	GALR2 ag	RGS16-Gao HTS	Insulin prom inh	Insulin prom inh cell count
Cc1ccc(C)c(NC(=S)NNC(=S)Nc2ccc(C(C)C)cc2)c1	i	0.75	-3	.	99	.	.
O=C(CN1CCCCC1)NCCNC(=O)CN1CCCCC1	i	0.87	-2	-0.8	101	0	101
CCOC(=O)N1CCC(NC(=O)c2cc(S(=O)(=O)N3CCCC3)cn2C)CC1	i	1.1	13	0.4	107	-18	97
COc1ccc(C)cc1-n1nnnc1SCC(=O)N1CCC(C(=O)Nc2nccs2)CC1	i	0.86	10	0.3	105	-23	91
O=C(CN1C2=NCCCN2c2ccccc21)c1ccc(Br)s1	i	0.97	-8	4.6	101	.	.
Cn1c(=O)[nH]c(=O)c2c1nc(CN1CCN(c3ccccc3F)CC1)n2CCc1ccccc1	i	0.86	.	.	107	.	.
CCOc1ccc(C(=O)N(CN2CCCC2=O)c2ccc(C)cc2)cc1	i	0.7	2	-2.3	103	17	83
CCN(C(=O)CCN1C(=O)c2ccccc2C1=O)C1CCCCC1	i	0.85	7	-1.4	96	.	.
COC(=O)c1ccc(N2CCCCC2)c(NS(=O)(=O)c2ccc(C)cc2)c1	.	.	-5	18*	96	19	105
O=C(CSc1nc2ccccc2s1)c1cc2ccccc2o1	i	0.88	-5	-3.0	103	-86	91
CCCn1c(N)cc(=O)n(CCC)c1=O	i	0.96	-10	.	102	.	.
CCOC(=O)N1N=C(c2ccccc2)CC1(O)C(C)(F)F (configuration not stated)	i	0.85	4	.	96	74*	121*
Clc1ccc(-c2nnc(-c3ccccc3)c(-c3c[nH]c4ccccc34)n2)cc1	i	0.98	.	.	103	.	.
O=S(=O)(N/N=C/c1ccc(OC2CSC2)cc1)c1ccccc1	i	1	-6	-1.3	65	.	.
COc1cc(C(=O)OCC(=O)c2c(N)n(C)c(=O)n(C)c2=O)ccc1OCCC(C)C	i	0.88	-6	.	106	25	156
CCCCC(=O)NNC(=S)NC(=O)c1ccc(C)cc1	i	1	-4	.	114	.	.
CCCCNC(=O)CSc1nc2ccc(C)cc2[nH]1	i	0.79	-1	.	109	8	117
O=C1c2ccccc2C(Nc2ccc(Cl)cn2)N1Cc1ccccc1 (configuration not stated)	i	0.93	-5	-1.9	101	.	.
Nc1sc(-c2ccccc2)cc1C(=O)O	.	.	2	-0.8	71	0	55
Cc1ccc(S(=O)(=O)N(C)C)cc1NC(=O)CCNC(=O)c1ccccc1Cl	i	0.98	-8	0.2	104	.	.
Cn1cccc1Cc1nnc(SCC(=O)Nc2ccccc2F)n1CCc1ccccc1	i	0.96	-2	-1.1	76	.	.
O=C(O)/C=C/c1cccc(NS(=O)(=O)c2ccccc2)c1	i	1.1	10	-1.3	107	16	183
CC(C)n1c(NCc2ccc(Cl)cc2)nc2ccccc21	i	0.63	.	.	101	.	.
Cn1nnnc1SCC(=O)N(C1CCCCC1)C1CCS(=O)(=O)C1 (configuration not stated)	i	0.9	2	.	112	18	160
CC(C)COc1ccc(C(=O)N2C(=O)c3ccc(N)cc3C2=O)cc1	i	1	.	.	92	.	.
CCCCCCn1cc(C(=O)OCC)c(=O)c2cc(F)c(F)cc21	i	0.86	.	.	104	.	.
N#C/C(=C\c1ccc(C(=O)O)cc1)c1nc2sc3c(c2c(=O)[nH]1)CCCC3	?	.	.	.	99	.	.
N/C(=N\OC(=O)c1ccc(Cl)c(Cl)c1)c1cccc(CSc2ccccn2)c1	i	1.1	.	.	104	.	.
Cc1ccc(S(=O)(=O)N2CCc3ccccc3C2CC(=O)O)cc1 (configuration not stated)	i	1.1	.	.	101	.	.
Cc1cccc(Oc2ccc(Cl)cc2N)c1	i	0.94	-1	.	67	.	.

mol	HSV replic up	HSV replic up primary fold	PKD1 kinase inh	GALR2 ag	RGS16-Gao HTS	Insulin prom inh	Insulin prom inh cell count
CCOC(=O)C1C(=O)NC(c2ccccc2)=NC1c1cccc(Br)c1 (configuration not stated)	i	0.92	-1	.	108	-13	116
CCCOC(=O)c1cccc(NC(=O)C(C)(C)C)c1	i	0.89	-11	-2.5	73	.	.
Fc1ccccc1C(c1nnnn1C1CCCC1)N1CCN(Cc2ccccc2)CC1 (configuration not stated)	.	.	-3	1.7	101	36	139
Cc1cccc(CN2C(=O)c3ccccc3Sc3ccc(C(=O)O)cc32)c1	i	0.92	.	.	68	.	.
CC1(C)CC(=O)C(C=NCC2CCN(C(=O)Cc3ccccc3)CC2)=C(O)C1	i	1	-4	.	100	8	130
COc1ccc(CC(=O)Nc2cc(=O)n(C)c(=O)n2C)cc1OC	i	0.98	-3	.	106	.	.
COc1cc(/C=C/C(=O)N2CCN(CC(O)COc3ccccc3)CC2)cc(OC)c1OC (configuration not stated)	i	0.97	-1	-2.5	101	-12	107
CN1CCN(c2ccc(Cl)cc2NC(=O)c2nn(-c3ccccc3)c(=O)c3ccccc23)CC1	i	0.84	4	0.5	104	27	136
CCN(CC)c1ccc(/C=N/N2CCN(Cc3ccccc3Cl)CC2)c(O)c1	i	1.2	.	.	99	.	.
CCOc1ccc(N(CC(=O)Nc2ccc(F)c(F)c2)S(=O)(=O)c2c(C)noc2C)cc1	i	0.93	-16	-0.9	104	.	.
Cn1c(=O)c2cc(S(=O)(=O)NC(Cc3ccccc3)C(=O)NCC3CCCO3)ccc2n(C)c1=O (configuration not stated)	i	0.83	-6	.	109	.	.
COCCn1c(NC(=S)NC(=O)C23CC4CC(CC(C4)C2)C3)cc(=O)[nH]c1=O	i	0.91	.	.	98	.	.
COc1ccc(-c2nc(C#N)c(NCc3ccccc3Cl)o2)cc1	i	0.74	23	-2.5	101	-333	15
O=C(CSc1nnc(-c2ccco2)o1)NC1CCCCC1	i	0.93	-5	-2.5	50	0	192
COCCN1C(=O)c2ccccc2C(C(=O)N2CCN(c3ccccc3)CC2)C1c1ccc(F)cc1 (configuration not stated)	i	0.94	-5	-0.3	103	-37	107
Cc1ccccc1C(=O)NC(=S)NC1CCSC1=O (configuration not stated)	i	0.94	-13	-0.6	93	22	85
S=C1NCN(Cc2ccco2)CN1CCc1ccccc1	i	0.89	.	.	115	.	.
CCCC1O[C@@H]2C[C@H]3[C@@H]4CCC5=CC(=O)C=C[C@]5(C)[C@H]4[C@@H](O)C[C@]3(C)[C@]2(C(=O)CO)O1 (some centres not stated)	i	0.82	-11	2.2	103	-76	100
COc1ccc(CCNC(=O)C2CCN(S(=O)(=O)N3CCC4(CC3)OCCO4)CC2)cc1OC	i	0.99	-2	-0.5	111	0	80

Four entries picked at random from the list so far:
mol	HSV replic up	HSV replic up primary fold	PKD1 kinase inh	GALR2 ag	RGS16-Gao HTS	Insulin prom inh	Insulin prom inh cell count
CCOC(=O)C1C(=O)NC(c2ccccc2)=NC1c1cccc(Br)c1 (configuration not stated)	i	0.92	-1	.	108	-13	116
Clc1ccc(-c2nnc(-c3ccccc3)c(-c3c[nH]c4ccccc34)n2)cc1	i	0.98	.	.	103	.	.
O=C(CSc1nc2ccccc2s1)c1cc2ccccc2o1	i	0.88	-5	-3.0	103	-86	91
Cc1ccc(S(=O)(=O)N(C)C)cc1NC(=O)CCNC(=O)c1ccccc1Cl	i	0.98	-8	0.2	104	.	.

Rows are unselected, and some 1.3% of all compounds hit somewhere here.
